AID504770 – growth inhibition of E. coli YBA685, primary screen, V. cholerae RctB inhibitors. AID 504770, 2011. E. coli YBA685 rctB-dependent plasmid, OD600 growth, 3 h; stronger effect = lower value. actives 0.27% (n = 130,000). z-score (test concentration not listed);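 active = z-score under -2 on both plates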;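 also: wells of about 30 µL received 100 nL stock; score is relative to mean and SD of the test wells; the first replicate is given; strong numbers were not always called active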
CapD inh – Bacillus anthracis CapD inhibitors, primary screen, biochemical, fluorescence intensity; CapD gamma-glutamyltranspeptidase (Bacillus anthracis Ames Ancestor); purified CapD enzyme, fluorescence intensity read-out; stronger effect = lower value; some hits fall short of the stated cut; z-score (test concentration not listed); actives 0.23% (n = 140,000); AID 492967, 2010;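 active = z-score under -4 in either of two replicates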;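 also: stock transfer was 100 nL into about 40 µL; score is relative to mean and spread of the plate; one replicate is shown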
* = called active by the depositor; . = not tested or not shown; & = joins results of further samples.

SMILES | AID504770 | CapD inh
CC1C(c2ccccc2)CC(C(=O)O)C1(C)C (stereo not given) | 1.1 | 0.5
CNC(=O)c1cc2ccccc2oc1=O | 1.4 | 16
Cc1ccc(OCCOc2ccc([N+](=O)[O-])cc2-c2nc3sc4c(c3c(=O)[nH]2)CCCC4)cc1 | . | -0.28
CCOc1ccccc1NC(=O)Cn1c(C(F)(F)F)nc2ccccc21 | . | -0.36
CC(=O)N1CCC(C(=O)OCC(N)=O)(c2ccccc2)CC1 | -0.1 | .
O=S(=O)(Nc1ncccn1)c1ccccc1 | -0.6 | -0.04
CCCc1[nH]n(-c2ccc(F)cc2)c(=O)c1C=NCc1ccc(Cl)cc1 | . | -0.39
Cc1cc(Nc2ccccc2C(=O)O)n(-c2c(Cl)cccc2Cl)n1 | . | 0.44
Nc1c(C(=O)c2ccco2)oc2ccccc12 | -0.25 | .
CC(=O)N1CCCc2cc(S(=O)(=O)N3CC=C(c4ccccc4)CC3)ccc21 | -0.45 | -0.27
O=C(O)c1cc(C(=O)O)cc(N2C(=O)c3ccccc3C2=O)c1 | -0.7 | 0.015
CCNc1ccc(C(=O)O)cc1N | 0.4 | .
CCn1nc(C)cc1-c1nnc(SCc2ccc(C(F)(F)F)cc2)o1 | 0.1 | -0.94
CCc1ccc2oc(-c3cc(N)cc(C)c3O)nc2c1 | 0.3 | -0.98
CN(c1ccccc1)S(=O)(=O)c1cn(C)c(=O)n(C)c1=O | -0.2 | .
Clc1ccc(CSC(Cn2ccnc2)c2ccc(Cl)cc2Cl)cc1 (stereo not given) | -0.75 | -1&2.5
CCOC(=O)c1nc(N(C)C2CCCCC2)c2ccccc2n1 | -1.5 | -0.055
O=C(c1cn(-c2ccc(F)cc2F)c(=O)c2ccccc12)N1CCN(c2ccccc2)CC1 | -0.1 | -0.55
c1ccc2c3c([nH]c2c1)C1C2CCC(C4CCCNC42)N1CC3 (stereo not given) | . | -0.71
COC(=O)CS(=O)(=O)c1nccn1C | 1.5 | 1.1
Fc1cccc(-n2ncc3c2ncn2nc(-c4ccccc4)nc32)c1 | -1.1 | -0.39
COc1ccc(-c2cnc(=O)n(Cc3ccc(C(C)(C)C)cc3)c2)cc1 | . | 0.51
N#Cc1ccc(-c2cccs2)s1 | -1 | 74
CCc1nc2n(n1)C(c1ccc3c(c1)OCO3)C(C(=O)Nc1ccccc1OC)=C(C)N2 (stereo not given) | -0.35 | .
CC(C)NC(=O)C(C)Oc1ccc(S(N)(=O)=O)cc1 (stereo not given) | -0.95 | -0.45

Later entries:
SMILES | AID504770 | CapD inh
CCc1cc(=O)oc2cc(C)c3c(-c4ccccc4)coc3c12 | 1.9 | -1.6
CC[C@H]1OC(=O)[C@H](C)[C@@H](O[C@H]2C[C@@](C)(OC)[C@@H](O)[C@H](C)O2)[C@H](C)[C@@H](O[C@@H]2O[C@H](C)C[C@H](N(C)C)[C@H]2O)[C@](C)(O)C[C@@H](C)C(=O)[C@H](C)[C@@H](O)[C@]1(C)O | 0 | 0.22&-0.12&-1.1
CN1CCN(C(=O)NCCC(=O)c2ccc(F)cc2)CC1 | . | 0.14
CCNc1nc(NCC)nc(Oc2ccccc2C(=O)OC)n1 | . | 0.79
CC(C)NC(=O)CN1CCN(Cc2c(O)ccc3cc(Br)ccc23)CC1 | 0.5 | .
Cc1ccc2c(c1)N(C(C)C(=O)NCc1ccc3c(c1)OCO3)C(=O)CO2 (stereo not given) | -0.1 | -0.78
CC1OCN(c2ccc(OC(F)(F)F)cc2)Cn2c1nc1ccc(Cl)cc12 (stereo not given) | -0.75 | 0.035
Cc1cc2nc(NCCOc3ccccc3)c3ccccc3n2n1 | 0.15 | .
CCOC(=O)Cn1c(=NC(=O)c2ccc(N3C(=O)CCC3=O)cc2)sc2cc(S(N)(=O)=O)ccc21 | -0.45 | .
CCOCCOC(=O)C1=C(C)NC2=C(C(=O)CC(c3cccs3)C2)C1c1ccc(O)c(OCC)c1 (stereo not given) | . | 3.6
Cc1cc(Oc2ccc(C(F)(F)F)cc2[N+](=O)[O-])c2cc(F)ccc2n1 | . | -0.055
CCOC(=O)c1sc2nc(CC(=O)OC)nc(N3CC(C)CC(C)C3)c2c1C (stereo not given) | . | 5.6
O=C(O)C1Cc2c([nH]c3ccccc23)C(c2ccc(OC(F)F)cc2)N1 (stereo not given) | . | 1.7
O=C(O)CCCC(=O)Nc1ccc(-n2ccc(C(F)(F)F)n2)cc1 | -0.45 | 0.04
O=C(CSc1nc2ccc(N3C(=O)c4ccccc4C3=O)cc2s1)c1ccccc1 | 0.45 | 0.73
Cc1cc(NC(=O)C2CC2)n(-c2ccccc2C(F)(F)F)n1 | 0.45 | -0.51
CCCCc1c(C)nc2cc(-c3ccco3)[nH]n2c1=O | -0.3 | 0.14
CN(C)C(=O)COc1ccc2ccccc2c1 | -0.65 | -0.62
CCCOc1ccc(CNC(=O)Cc2cccs2)cc1 | -0.9 | -0.46
Cc1cc(Nc2ccccc2C(=O)O)nc2nc3ccccc3c(=O)n12 | 2.3 | -1.1
COc1ccc(C2(O)CN(c3ccccc3)C3=[N+]2CCCS3)cc1OC (stereo not given) | . | -0.3
COc1ccc(-c2cc(=O)oc3c(C)c(O)c(CN4CCCC(C)C4)cc23)cc1 (stereo not given) | -1.3 | 0.76
CN(c1ccccc1C(N)=O)S(=O)(=O)c1ccccc1 | 2.3 | -1.3
CCOC(=O)CN=C(c1ccccc1)c1ccccc1 | -0.7 | -0.2
N#Cc1c(N2CCOCC2)nsc1-c1ccccc1 | . | 0.005

The listing continues.
SMILES | AID504770 | CapD inh
O=C1/C(=C/c2c(NCc3ccccc3)nc3ccccn3c2=O)SC(=S)N1CC1CCCO1 (stereo not given) | . | -0.83
Brc1ccc(C2=Nn3c(nnc3-c3ccco3)SC2)cc1 | . | -0.37
COc1cccc(C2NC(=O)NC(C)=C2C(=O)Nc2ccccc2Cl)c1OC (stereo not given) | . | 0.18
O=C(c1ccc(CNS(=O)(=O)c2ccccc2)cc1)N1CCC2(CC1)OCCO2 | 1.6 | -0.71
COc1ccccc1N1CCN(C(=O)c2cc3n(n2)C(C(F)(F)F)CC(c2ccc(C)cc2)N3)CC1 (stereo not given) | . | -0.33
Cc1cc(C)nc(Sc2c(C)n[nH]c2C)n1 | -0.75 | -0.21
CS(=O)(=O)N(Cc1ccc(C(=O)O)cc1)c1cccc(Cl)c1Cl | -0.35 | -0.055
O=C(NNC(=O)c1ccccc1O)OCCc1ccccc1Br | . | 3.7
CN(C)C(=S)SCCCn1c(=O)[nH]c2ccccc21 | -0.55 | .
NC(=O)C1CCN(C(=O)CN2CCC(Cc3ccccc3)CC2)CC1 | 0.05 | 0.33
CCN1C(=O)C(=C2C=C(C)OC(C)=C2)C(=O)N(CC)C1=S | 0.5 | .
CC(C)CN(CC(C)C)S(=O)(=O)c1cccs1 | 0.45 | -0.3
O=C(OCCc1ccccc1Br)N1CCN(c2ccc([N+](=O)[O-])cc2)CC1 | . | -0.44
CC1CC(C)CN(S(=O)(=O)c2ccc3nnn(O)c3c2)C1 (stereo not given) | 2.5 | .
O=c1c2cnn(-c3cccc(Cl)c3)c2ncn1CCC1OCCO1 | 0.3 | .
CN(C)C1(CNCC(=O)Nc2ccc(Cl)cc2Cl)CCCCC1 | -0.1 | .
Nc1c2c(nc3ccn(-c4ccccc4)c(=O)c13)CCCCC2 | -0.6 | 10
CCOC(=O)C1=CN(Cc2ccc(OC)c(OC)c2)C=C(C(=O)OCC)C1c1cc(Cl)c(O)c(OC)c1 | . | 37
Cc1ccc(S(=O)(=O)Nc2ccc3c(c2)c2c(n3S(=O)(=O)c3ccc(C)cc3)CCC2)cc1 | . | -0.27
O=C(c1cnc2ccc(Cl)cc2c1Cl)N1CCOCC1 | -0.6 | .
CC(=O)N1CCc2c(sc3nc(SCc4cccc(F)c4)n(Cc4ccco4)c(=O)c23)C1 | -0.05 | 1.2
CCOC(=O)c1sc2nc(CC(=O)OC)nc(N3CCCC3)c2c1C | . | -0.15
COc1ccc(-c2cc(C(F)(F)F)n3nc(C(=O)Nc4ccc(OC)c(OC)c4)cc3n2)cc1 | . | -0.41
NC(=O)NOCC(=O)N1CCN(c2ncc(C(F)(F)F)cc2Cl)CC1 | . | 0.14
O=C(C1Cc2c(ccc3ccccc23)O1)N1CCN(c2ccccc2)CC1 (stereo not given) | . | 0.67

Copied from the listing (seven entries):
SMILES | AID504770 | CapD inh
COc1ccccc1N1CCN(C(=O)c2cc3n(n2)C(C(F)(F)F)CC(c2ccc(C)cc2)N3)CC1 (stereo not given) | . | -0.33
Cc1cc(C)nc(Sc2c(C)n[nH]c2C)n1 | -0.75 | -0.21
CS(=O)(=O)N(Cc1ccc(C(=O)O)cc1)c1cccc(Cl)c1Cl | -0.35 | -0.055
O=C(NNC(=O)c1ccccc1O)OCCc1ccccc1Br | . | 3.7
CN(C)C(=S)SCCCn1c(=O)[nH]c2ccccc21 | -0.55 | .
NC(=O)C1CCN(C(=O)CN2CCC(Cc3ccccc3)CC2)CC1 | 0.05 | 0.33
CCN1C(=O)C(=C2C=C(C)OC(C)=C2)C(=O)N(CC)C1=S | 0.5 | .

Later entries
SMILES | AID504770 | CapD inh
O=C(c1ccc(Cl)cc1)N1CCC(n2nnc3ccccc32)CC1 | -0.55 | -0.48
COc1ccc(-n2[nH]c(C)c(C(C)=NCCc3ccc(S(N)(=O)=O)cc3)c2=O)cc1 | -1.1 | .
O=C(c1ccc[nH]1)c1cc2cc(Br)ccc2o1 | 0.65 | .
CCN(CC)CC(=O)OC1CC2CCC1(C)C2(C)C (stereo not given) | -0.25 | -0.1
CC(=O)/C(N=Nc1cccc(C(F)(F)F)c1)=C(\C)O | . | 0.28
Cc1cc(C)c(C(=O)O)c(CC(C)(C)C(=O)N2CCC(O)(c3ccccc3)CC2)c1 | . | -0.27
CP(=O)(O)CN1CCN(CP(C)(=O)O)CC1 | -0.15 | 0.56
NC(=O)Cn1c(=O)n(CCC(=O)NCCc2ccc(Cl)cc2)c(=O)c2sccc21 | 1.9 | -0.11
O=C(NN1C(=O)S/C(=C/c2ccc(Cl)cc2)C1=S)c1ccccc1Cl | 0.9 | 3.4
CC(=O)Nc1nonc1NC(C)=O | 0.15 | .
Cc1ccc(Nc2nc(C(=O)NCC3CCCO3)cs2)cc1 (stereo not given) | 1.4 | .
CCN(CCO)c1ncnc2onc(-c3ccccc3C)c12 | 1.3 | 0.27
O=S(=O)(c1cc(Cl)cc(Cl)c1)N1CCN(CCCO)CC1 | . | -0.8
CN1CCN(C(=O)c2ccccc2NC(=O)COc2ccc(Cl)cc2)CC1 | 1.4 | -0.07
C=CCN1C(=O)C(CC(=O)Nc2ccccc2)N(Cc2ccccn2)C1=S (stereo not given) | 1.5 | 0.29
CCOC(=O)COc1ccc(C=C2C(=O)NC(=O)NC2=O)cc1Br | 1.2 | 0.36
CC1(C)CCCN(S(=O)(=O)c2cc(F)c(Br)cc2F)C1 | . | 0.43
CCc1ccc2[nH]c(C(=O)NCc3ccccc3)cc2c1 | 1.3 | 8.6
CCOc1ccccc1CNC(=O)OCCN1CCN(Cc2cc(OC)c3c(c2)OCO3)CC1 | . | -1
CN(C)CCN(Cc1ccccc1)Cc1c(F)cccc1Cl | -0.2 | 0.02
Cc1csc2nc(COC(=O)CSc3ccccc3)cc(=O)n12 | 2 | 46
CCOC(=O)C1=C(C)N=c2s/c(=C\c3ccc(OCc4ccccc4)cc3)c(=O)n2C1c1ccc(OC)cc1OC (stereo not given) | . | -0.085
O=C(O)c1ccccc1C1=Nc2ccc(O)cc2Oc2cc(O)ccc21 | 0 | .
CC1(C)Cc2nc3sc4c(NCC5CCCO5)ncnc4c3cc2CO1 (stereo not given) | 1.7 | -0.54
O=C(Cn1ncc2c(=O)oc3ccccc3c21)N(Cc1ccco1)C1CCCCC1 | -0.8 | 0.16

Next part:
SMILES | AID504770 | CapD inh
COc1cc(OC)cc(C(=O)N2CCC(C(=O)NC(C)C)CC2)c1 | -1.6 | .
CC1CC(OCC(O)CN2CCN(c3cccc(C(F)(F)F)c3)CC2)CC(C)(C)C1 (stereo not given) | -0.05 | -0.45
O=C(Nc1cccc(C(F)(F)F)c1)C1CC(c2ccccc2O)=NO1 (stereo not given) | -0.65 | -0.075
OC(CN1CCN(c2nc3ccccc3s2)CC1)c1ccc(Cl)cc1 (stereo not given) | 0.5 | .
Cc1ccc(N2CCN(C(=O)OCCSCCNC(=O)c3sc4ccccc4c3Cl)CC2)cc1 | . | 0.3
CCCCNC(=O)Cn1c(=S)[nH]c2c([nH]c3ccc(OC)cc32)c1=O | 1.6 | 2.5
O=S(=O)(NCC1OCCc2ccccc21)c1ccccc1 (stereo not given) | 0.2 | .
CS(=O)(=O)c1cccc(Cl)n1 | 2.1 | -0.57
Nc1ccc(S(=O)(=O)C(F)(F)F)cc1 | 0.1 | 0.6
COc1ccc(-n2cccc2CO)cc1 | 2.3 | -0.41
O=C1S/C(=C/c2cc3c(cc2Cl)OCO3)C(=O)N1c1ccccc1 | 3 | -0.015
Cc1cccc(-n2nnnc2SCC(=O)c2c[nH]c3ccccc23)c1 | 0.55 | .
Cc1ccc(N(CC#N)C(=O)Cn2cc[n+](C)c2)cc1 | 2.2 | 0.29
O=C(OCC(=O)c1cccs1)c1ccc2c(c1)S(=O)(=O)c1ccccc1C2=O | -0.85 | .

Quoted at random: 3 records from the list, in no set order.
SMILES | AID504770 | CapD inh
Cc1cc(NC(=O)C2CC2)n(-c2ccccc2C(F)(F)F)n1 | 0.45 | -0.51
CN(c1ccccc1)S(=O)(=O)c1cn(C)c(=O)n(C)c1=O | -0.2 | .
CN1CCN(C(=O)c2ccccc2NC(=O)COc2ccc(Cl)cc2)CC1 | 1.4 | -0.07
